NS1 inh = inhibitors of influenza NS1 protein function; S. cerevisiae slowed by influenza A NS1, growth recovery by OD600; Potency, µM (doses to about 46.1 µM), without a hit: at the top dose activity, positive = more growth; actives 0.4% (n = 270,000); note: actives are rising curves; nearly all actives have a fitted effect of over 50% in size
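Compounds were scored for reversing the slow growth caused by influenza A NS1 in S. cerevisiae, measured by optical density at 600 nm. Assay medium contained 2% galactose at pH 6.0; NS1-free yeast of the same strain were the positive control.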
SARS PLP yeast = inhibitors of SARS-CoV papain-like protease in yeast; AID 485353; Potency, µM (top dose mostly 32.9 µM), for inactives: at the top dose activity, positive = growth rescue; S. cerevisiae expressing SARS-CoV PLpro, growth rescue; control for the full effect not named in the record; actives 0.19% (n = 330,000); note: 0% is about no effect; nearly all actives have a fitted effect of over 55% in size; growth read by luminescence after 48 h
* hit, by the source's call; ? = inconclusive; nt = no result given. Calls come from the whole dose curve; as a rule, active means well fitted rising curve with a large enough effect; inconclusive means small, poorly fitted or top-dose-only effect; inactive means no such curve, though single readings can be large or run the other way. Potency is the fitted concentration of half-maximal effect.

SMILES	NS1 inh	SARS PLP yeast
CC(C)c1ccc(S(=O)(=O)/N=C2/C=CC(=O)c3ccccc32)cc1	nt	-6%
NC(=O)c1ccc(C[C@H](C(=O)O)N2C(=O)c3ccc(C(=O)O)cc3C2=O)cc1	nt	-6%
COC(=O)c1cc(=O)n(Cc2ccccc2)c(=NCc2ccccc2)s1	nt	2%
C#C[C@]1(O)[C@H](O)CC2C3CC[C@H]4C[C@@H](O)CC[C@]4(C)C3CC[C@@]21C (stereo partly drawn)	nt	-10%
O=C(NCc1ccccc1Cl)C1CCCN(c2nc3ccsc3c(=O)s2)C1 (stereo not drawn)	nt	-3%
COc1ccccc1NC(=O)CN(Cc1ccco1)C(=O)c1cc2ccccc2o1	nt	0%
COc1ccc(N2C(=O)NC(=O)/C(=C/c3ccc(N4CCOCC4)cc3)C2=O)cc1	nt	1%
O=C(O)c1ccc(S(=O)(=O)N[C@H](Cc2c[nH]c3ccccc23)C(=O)O)cc1	nt	-1%
O=S(=O)(c1ccc2c(c1)OCCO2)N1CCN(S(=O)(=O)c2ccc3c(c2)OCCO3)CC1	nt	1%
Cc1ccc(Cl)c(NC(=O)CN2CCN(C=O)CC2)c1	nt	2%
Cc1cc(C)nc(SCc2ccc(C(=O)N/N=C/c3cccnc3)cc2)n1	nt	-5%
CN1C(=O)C(=Cc2ccc(N(C)C)c([N+](=O)[O-])c2)C(=O)N(C)C1=O	nt	-4%
O=C(N=Nc1ccc(NOC(=O)c2ccccc2Br)cc1)c1ccccc1O	nt	3%
COCCNC(=O)CCCn1c(=O)c2cc(OC)c(OC)cc2n(CC(=O)c2ccc(Cl)cc2)c1=O	nt	-5%
CC(=O)Nc1ccc(S(=O)(=O)NCC2CCC(C(=O)NC(C)c3ccc4c(c3)OCCO4)CC2)cc1 (stereo not drawn)	nt	0%
Cc1cc([N+](=O)[O-])c2c(c1C)C1C=CCC1C(c1ccccn1)N2 (stereo not drawn)	nt	-2%
CCc1nn(CC(=O)NCCCN(CC)c2cccc(C)c2)c(=O)c2cc3occc3n12	nt	-1%
CC(OC(=O)c1ccc2ncsc2c1)C(=O)N1CCCC1 (stereo not drawn)	nt	1%
CCOc1ccccc1NC(=O)CC1SC(=N)N(c2ccccc2)C1=O (stereo not drawn)	nt	0%
COCCN(C(=O)CSc1nnc(-c2cccc(OC)c2)n1C)c1c(N)n(Cc2ccccc2)c(=O)[nH]c1=O	nt	0%
CO[C@H]1C=CO[C@@]2(C)Oc3c(C)c(O)c4c(O)c(c5c(nc6cc(C)ccn65)c4c3C2=O)NC(=O)C(C)=CC=C[C@H](C)[C@H](O)[C@@H](C)[C@@H](O)[C@@H](C)[C@H](OC(C)=O)[C@@H]1C	nt	2%
COC(=O)c1ccc(Oc2nc(NC(C)(C)C)nc(N3CCOCC3)n2)cc1	nt	-2%
Cn1c2cc(Br)sc2c2cnn(Cc3ccc(F)cc3)c(=O)c21	nt	-1%
Brc1ccc(-c2ccc(C3Nc4cccc5cccc(c45)N3)o2)cc1	nt	-27%
O=C(Nc1cc2cc([N+](=O)[O-])ccc2oc1=O)c1cccs1	nt	2%

Additional results
SMILES	NS1 inh	SARS PLP yeast
Cc1ccccc1NC(=O)c1snc2c(=O)[nH]cnc12	nt	-1%
COc1cc(NC(=O)c2cccnc2)ccc1-c1cc2ccccc2oc1=O	nt	0%
COc1ccc(Br)cc1/C=N/NC(=O)c1cc(Br)ccc1O	nt	3%
CCN(CC)S(=O)(=O)c1cccc(C(=O)N[C@@H](C)c2nc3ccccc3[nH]2)c1	nt	0%
O=C(O)c1ccc(S(=O)(=O)N[C@@H](Cc2ccc(O)cc2)C(=O)O)cc1	nt	3%
CN(C)S(=O)(=O)c1cccc(NC(=O)c2ccc3c(c2)S(=O)(=O)N=C2CCCCCN23)c1	nt	1%
Cc1nn(C2CCCO2)c(=O)nc1N (stereo not drawn)	nt	1%
CCC(CC)c1nnc(NC(=O)c2nn(C)c(=O)c3ccccc23)s1	nt	1%
O=C(Nc1cccc(F)c1)c1cc(S(=O)(=O)N2CCC3(CC2)OCCO3)ccc1F	nt	4%
O=C1NC(=O)N(Cc2ccccc2)C(=O)/C1=C/c1cnn(-c2ccccc2)c1	nt	-4%
Oc1ccc(CNCc2ccc3c(c2)OCO3)c2cccnc12	nt	4%
CCC(=Nc1ccccc1)C1=C(O)CC(C)(C)CC1=O	nt	-5%
CCN(c1ccccc1)S(=O)(=O)c1cc2c3c(c1)CCN3C(=O)CC2	nt	0%
C[C@@H]1O[C@@H](OC2C(O)C(OCCc3ccc(O)c(O)c3)OC(CO)C2OC(=O)/C=C/c2ccc(O)c(O)c2)[C@H](O)[C@H](O)[C@H]1O (stereo partly drawn)	nt	-3%
Cc1cc(=O)[nH]c(N/N=C/c2ccc([N+](=O)[O-])cc2)n1	nt	1%
CCCS(=O)(=O)Nc1ccc(-c2ccc3nnc(C)n3n2)cc1	nt	1%
COc1cc(NS(=O)(=O)c2ccc(NC(=O)c3ccc(S(=O)(=O)N4CCCC4)cc3)cc2)ncn1	nt	1%
Cc1cc(C)n2nc(SCc3nnc(-c4ccc(F)cc4)o3)nc2n1	nt	1%
Cn1cc(C[C@H](C(=O)O)N2C(=O)c3ccc(C(=O)O)cc3C2=O)c2ccccc21	nt	2%
COc1ccc(C[C@@H](NS(=O)(=O)c2ccc(C(=O)O)cc2)C(=O)O)cc1	nt	2%
O=C1NC(Cc2ccc(O)cc2)c2nc3ccccc3c(=O)n2-c2cc(Cl)ccc21 (stereo not drawn)	nt	-8%
O=C(Cc1c(Cl)cccc1Cl)NC1=NCCS1	nt	-2%
N#Cc1c2ccc([N+](=O)[O-])cc2[n+]([O-])n1-c1ccccc1	nt	-3%
O=C(N/N=C(\Cc1ncc[nH]1)c1ccccc1)c1ccccc1	nt	-2%
O=C(O)c1ccc2c(c1)C(=O)N([C@H](Cc1ccc(F)cc1)C(=O)O)C2=O	nt	3%

(more compounds)
SMILES	NS1 inh	SARS PLP yeast
CC(C)(C)c1ccc(OC(=O)c2ccc(-n3cncn3)nc2)cc1	nt	-1%
C[C@]12CCC(=O)C[C@@H]1CC[C@@H]1[C@@H]2CC[C@@]2(C)[C@H]1CC[C@]2(C)O	nt	2%
Cc1ccc2c(c1)-n1c(nc3ccccc3c1=O)C(Cc1ccccc1)NC2=O (stereo not drawn)	nt	0%
COc1ccccc1Nc1cc(C(=O)N2CCc3ccccc3C2)c2ccccc2n1	nt	-8%
CCOC(=O)[C@H]1[C@H]2COc3cc(OC)ccc3[C@@H]2N2C(=O)[C@@H](CO)NC(=O)[C@@]12C	nt	6%
COc1ccc2nc3n(c(=O)c2c1)-c1cc(C)ccc1C(=O)NC3Cc1ccc(O)cc1 (stereo not drawn)	nt	2%
CC(=O)N[C@H](C(=O)N[C@@H](C)C(=O)N[C@H](C#N)CC(=O)O)C(C)C	nt	0%
O=C(CC1Nc2ccccc2NC1=O)Nc1ccccc1NC(=O)CC1Nc2ccccc2NC1=O (stereo not drawn)	nt	-1%
Cc1ccc2c(c1)-n1c(nc3ccc(C)cc3c1=O)C(Cc1ccccc1)NC2=O (stereo not drawn)	nt	8%
C#CCOCCOCCOCCNc1nc(N2CCN(C(=O)CCCCCCCCCCNC(=O)[C@H](CCCCN)n3cc(C)nn3)CC2)nc(N2CCN(C(=O)CCCCCCCCCCNC(=O)[C@@H]([C@H](C)CC)n3cc(CCCCCN)nn3)CC2)n1	nt	-4%
CC(C)CC1NC(=O)c2ccc(Cl)cc2-n2c1nc1ccc(F)cc1c2=O (stereo not drawn)	nt	-6%
O=C1NC(Cc2ccc(O)cc2)c2nc3cc(F)ccc3c(=O)n2-c2cc(Cl)ccc21 (stereo not drawn)	nt	9%
Cc1ccc2c(c1)-n1c(nc3ccc(C)cc3c1=O)C(Cc1ccc(O)cc1)NC2=O (stereo not drawn)	nt	7%
CC(C)c1ccc(/C=C/C(=O)Nc2nn[nH]n2)cc1	nt	1%
Nc1nn(-c2ccccc2)nc1C(=O)OCc1ccccc1F	nt	-13%
COc1ccc(Nc2nc(Cl)c(C=O)s2)cc1	nt	0%
Cc1ccccc1C[C@H](C(=O)O)N1C(=O)c2ccc(C(=O)O)cc2C1=O	nt	2%
CCN(CC)S(=O)(=O)c1ccc(C(=O)N2CCN(CCN3C(=O)c4cccc5cccc(c45)C3=O)CC2)cc1	nt	0%
O=C(OCC#CCNc1nnc(-c2cccc3ccccc23)o1)c1cccs1	nt	-3%
COc1ccc(N2CCN(C(=O)Cn3c(=O)[nH]c4ccccc4c3=O)CC2)cc1	nt	1%
CCOC(=O)C1=C(O)C(=O)N(CCCn2ccnc2)C1c1ccc(OC)cc1 (stereo not drawn)	nt	-1%
C=C1/C=C(\C)[C@](C)(O)C[C@H](O)CC(=O)[C@H](O)[C@@H](O)[C@H](C)C[C@H](C)OC(=O)/C(C)=C/CC/C=C/[C@@H]2O[C@H]2C[C@H](C)C1	nt	4%
Cc1ccccc1N(CC(=O)NC(C)(C)C)C(=O)c1ccc(-c2ccccc2)[nH]1	nt	0%
O=C(NC1CCCCC1)C(=O)N(Cc1cccnc1)C(C(=O)NCc1ccco1)c1ccccc1 (stereo not drawn)	nt	5%
Cc1ccc2nc3n(c(=O)c2c1)-c1ccccc1C(=O)NC3Cc1ccc(O)cc1 (stereo not drawn)	nt	3%

21 consecutive compounds out of the list so far, for reference:
SMILES	NS1 inh	SARS PLP yeast
O=C(Nc1cccc(F)c1)c1cc(S(=O)(=O)N2CCC3(CC2)OCCO3)ccc1F	nt	4%
O=C1NC(=O)N(Cc2ccccc2)C(=O)/C1=C/c1cnn(-c2ccccc2)c1	nt	-4%
Oc1ccc(CNCc2ccc3c(c2)OCO3)c2cccnc12	nt	4%
CCC(=Nc1ccccc1)C1=C(O)CC(C)(C)CC1=O	nt	-5%
CCN(c1ccccc1)S(=O)(=O)c1cc2c3c(c1)CCN3C(=O)CC2	nt	0%
C[C@@H]1O[C@@H](OC2C(O)C(OCCc3ccc(O)c(O)c3)OC(CO)C2OC(=O)/C=C/c2ccc(O)c(O)c2)[C@H](O)[C@H](O)[C@H]1O (stereo partly drawn)	nt	-3%
Cc1cc(=O)[nH]c(N/N=C/c2ccc([N+](=O)[O-])cc2)n1	nt	1%
CCCS(=O)(=O)Nc1ccc(-c2ccc3nnc(C)n3n2)cc1	nt	1%
COc1cc(NS(=O)(=O)c2ccc(NC(=O)c3ccc(S(=O)(=O)N4CCCC4)cc3)cc2)ncn1	nt	1%
Cc1cc(C)n2nc(SCc3nnc(-c4ccc(F)cc4)o3)nc2n1	nt	1%
Cn1cc(C[C@H](C(=O)O)N2C(=O)c3ccc(C(=O)O)cc3C2=O)c2ccccc21	nt	2%
COc1ccc(C[C@@H](NS(=O)(=O)c2ccc(C(=O)O)cc2)C(=O)O)cc1	nt	2%
O=C1NC(Cc2ccc(O)cc2)c2nc3ccccc3c(=O)n2-c2cc(Cl)ccc21 (stereo not drawn)	nt	-8%
O=C(Cc1c(Cl)cccc1Cl)NC1=NCCS1	nt	-2%
N#Cc1c2ccc([N+](=O)[O-])cc2[n+]([O-])n1-c1ccccc1	nt	-3%
O=C(N/N=C(\Cc1ncc[nH]1)c1ccccc1)c1ccccc1	nt	-2%
O=C(O)c1ccc2c(c1)C(=O)N([C@H](Cc1ccc(F)cc1)C(=O)O)C2=O	nt	3%
CC(C)(C)c1ccc(OC(=O)c2ccc(-n3cncn3)nc2)cc1	nt	-1%
C[C@]12CCC(=O)C[C@@H]1CC[C@@H]1[C@@H]2CC[C@@]2(C)[C@H]1CC[C@]2(C)O	nt	2%
Cc1ccc2c(c1)-n1c(nc3ccccc3c1=O)C(Cc1ccccc1)NC2=O (stereo not drawn)	nt	0%
COc1ccccc1Nc1cc(C(=O)N2CCc3ccccc3C2)c2ccccc2n1	nt	-8%

Next entries
SMILES	NS1 inh	SARS PLP yeast
O=C(CSc1ccccn1)NC1CCCC1	nt	1%
CN(C)CCCN1C(=O)C(O)=C(C(=O)c2cccs2)C1c1cccc([N+](=O)[O-])c1 (stereo not drawn)	nt	0%
COC(=O)c1cc(C(=O)Cc2ccccc2)c[nH]1	nt	1%
COc1ccc(OC)c(CNC(=O)c2cc(=O)[nH]c3ccc(S(=O)(=O)N4CCCC4)cc23)c1	nt	0%
N#C/C(=C\c1ccc(C#N)cc1)C(=O)N1CCCC1	nt	1%
N#Cc1nc(-c2cccc3ccccc23)oc1NCC#CCOC(=O)c1cccs1	nt	-2%
Cc1ccc2c(c1)-n1c(nc3ccc(Cl)cc3c1=O)C(CC(C)C)NC2=O (stereo not drawn)	nt	0%
Cn1cc([N+](=O)[O-])c(C(=O)NC2CCCCCCC2)n1	-8%	-2%
Cc1cc(C)nc(N/N=C/C2=C(O)CC(c3ccccc3)CC2=O)n1 (stereo not drawn)	-41%	-5%
Cc1cc(N2CCCC2)nc(N2C3CCC2CC(O)(c2ccc(F)cc2)C3)n1 (stereo not drawn)	0%	1%
O=C1c2ccccc2C(=O)C1C1=Nc2ccccc2NC(c2ccccc2)C1 (stereo not drawn)	1%	0%
Cc1cccc(NC(=O)NCc2ccc3c(c2)OCO3)c1	-3%	-4%
COc1cc(/C=C2\C(=N)N3N=C(S(C)(=O)=O)SC3=NC2=O)ccc1OS(=O)(=O)c1ccccc1	13%	-3%
CCCCNC(=O)C(c1ccc(OCC(=O)OC)c(C(=O)OC)c1)N(CCc1c[nH]c2ccccc12)C(=O)CCCCCN1C(=O)NC(c2ccc(-c3ccccc3)cc2)C(C(=O)OCc2ccccc2)=C1C (stereo not drawn)	?	2%
CCCn1c(=O)c(C(=O)NNC(=O)c2ccccc2[N+](=O)[O-])c(O)c2ccccc21	-18%	2%

The list is partial; the hit share may differ from the screen's.
